StopGo reporter – lowers the luciferase signal of an FMDV 2A StopGo reporter; Potency, µM (titrated, usually from 57.9 µM), for inactives: at the highest dose signal change, negative = less light; human cells with a luciferase reporter of 2A StopGo recoding; control for the full effect not named in the record; actives 1.2% (n = 410,000); active = well fitted falling curve with a large enough effect; inconclusive = small, poorly fitted or top-dose-only effect; inactive = no such curve, though single readings can be large or run the other way; tested in HEK293T cells; further: nearly all actives have a fitted effect of over 45% in size; luciferase light after 4 h
RE007 growth inh – less growth of the S. pombe RE007 Vpr strain; S. pombe RE007 Vpr strain, BacTiter-Glo ATP luminescence, 24 h; control for the full effect not named in the record; Potency, µM (doses to about 92.2 µM), for inactives: at the highest dose activity change, negative = less growth; actives 0.21% (n = 360,000); active = well fitted falling curve with a large enough effect; inconclusive = small, poorly fitted or top-dose-only effect; inactive = no such curve, though single readings can be large or run the other way;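 further: nearly all actives have a fitted effect of over 50% in size; the assay follows cell death caused by Vpr and the record does not say whether a fall means rescue or toxicity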
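Fission yeast strain RE007, carrying one chromosomally integrated HIV-1 vpr copy, was seeded at OD 0.01 in PMG+AL medium with 23 nL pinned compound. After 24 h at 30 °C and 99% humidity, viability was read by BacTiter-Glo luminescence.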
Starred values were filed as active, the others as inactive; ? = inconclusive; [ ] = another dose, or the depositor's remark. On the % scale 0 is the no-effect control and ±100 the full control effect; potency means the concentration at half of the fitted maximal effect. Only part of the results is shown; rates above refer to the full screens.

A first look, three compounds:
SMILES | StopGo reporter | RE007 growth inh
C[C@@H]1CN([C@@H](C)CO)C(=O)CCCn2cc(nn2)CO[C@H]1CN(C)S(=O)(=O)c1ccc(-n2cccn2)cc1 | -11% | -8%
O=C1C(=Cc2ccc(Cl)cc2)CCc2ccccc21 | -27% | -19%
CCCn1c(C)cc(C(=O)COC(=O)c2cc(=O)[nH]c3ccccc23)c1C | 15% | -7%

This part in full, from the start:
SMILES | StopGo reporter | RE007 growth inh
C[C@@H]1CN([C@@H](C)CO)C(=O)CCCn2cc(nn2)CO[C@H]1CN(C)S(=O)(=O)c1ccc(-n2cccn2)cc1 | -11% | -8%
O=C1C(=Cc2ccc(Cl)cc2)CCc2ccccc21 | -27% | -19%
CCCn1c(C)cc(C(=O)COC(=O)c2cc(=O)[nH]c3ccccc23)c1C | 15% | -7%
O=C1C(=Cc2ccccc2O)SC(=S)N1CCCN1CCOCC1 | ? | 5%
COc1cccc(C(C)(O)c2nc(-c3cc4ccccc4o3)cs2)c1 (stereo not drawn) | ? | ?
CCCS(=O)(=O)NC(=O)C1(C)CCCN(C(=O)c2ccc(C(F)(F)F)nc2C)C1 (stereo not drawn) | -5% | 155%
Cc1ccc(NC(=S)NC(=O)c2cncc(Br)c2)c(C)c1 | 18% | -2%
Fc1cccc(-c2ccc3c(c2)CN(c2cccc(Cl)c2)Cc2cnnn2-3)c1 | -13% | 7%
CC1(C(=O)Nc2nccs2)CCN1C(=O)CC(c1ccccc1)c1ccccc1 (stereo not drawn) | 0% | 7%[18.4 µM]
N#Cc1ccc(S(=O)(=O)N2CCN(CN3C(=O)CC4(CCCC4)C3=O)CC2)cc1 | -25% | -3%
CC1(C(=O)NS(=O)(=O)c2cccc(F)c2)CCN1C(=O)c1ccco1 (stereo not drawn) | -10% | 13%
COc1ccc(NC(=O)C(c2ccncc2)n2c(=O)c(-c3ccccc3)nc3ccccc32)cc1 (stereo not drawn) | 27% | 4%
COc1ccc(CN2C(=O)C(CC(=O)NCc3cccc4ccccc34)CC(C(=O)N(C(C)C)C(C)C)=C2C)cc1 (stereo not drawn) | -16% | -5%
CC1(C(=O)NS(=O)(=O)c2cccc(C#N)c2)CCN1C(=O)Cc1ccccc1Cl (stereo not drawn) | -18% | -6%[18.4 µM]
CCNC(=O)C1(C)CCCN(C(=O)c2cccnc2Oc2ccccc2)C1 (stereo not drawn) | -17% | 4%
OC(c1ccc(F)c(F)c1)c1nc(-c2ccc(F)c(Cl)c2)cs1 (stereo not drawn) | -13% | ?
C(=C\c1ccccc1)/CN1CCN(C(c2nnnn2-c2ccc3c(c2)OCCO3)C2CC2)CC1 (stereo not drawn) | ? | -17%
CCN(CC)C(=O)C1=C(C)N(Cc2ccc(OC)cc2)C(=O)C(CC(=O)NCCN2CCOCC2)C1 (stereo not drawn) | -5% | -11%
CCOc1ccc(OCCC(=O)N(CCOC)c2c(N)n(Cc3ccccc3)c(=O)[nH]c2=O)cc1 | -13% | 16%
COc1ccccc1CN(C)C[C@H]1OCc2cnnn2CCCC(=O)N([C@@H](C)CO)C[C@@H]1C | 0% | -2%
CC(=O)Nc1cncc(-c2ccccc2CO)n1 | -14% | 2%[18.4 µM]
CC(C)N1CC2(CC(c3ccc(Cl)cc3Cl)=NO2)CN1C(=O)c1ccc(C(C)(C)C)cc1 (stereo not drawn) | ? | 9%
CCc1nn(CC(=O)NCCCN2CCOCC2)c(=O)c2cc3c(OC)cccc3n12 | -16% | -10%
O=C(CNc1cccc(Br)c1)Nc1ccc(S(=O)(=O)N2CCCCC2)cc1 | 6% | -7%
C=CCSc1nc(N)c(NC(=O)c2ccco2)c(=O)[nH]1 | -1% | -13%
CCOC(=O)c1cc2c(cn1)[C@H](CCO)NC2 | -18% | -8%
CCCN(CC(=O)Nc1ccccc1C)C(=O)C1CCN(S(=O)(=O)c2ccc3c(c2)OCCO3)CC1 | -5% | -6%
CC(C)C(N)c1csc(NC(=O)Nc2ccccc2C(C)(C)C)n1 (stereo not drawn) | -19% | -5%[18.4 µM]
CN(C)c1ccc(-c2ccnc3c2CC(C)(C(=O)NCc2cccs2)O3)cc1 (stereo not drawn) | 21% | 11%
O=C(N/N=C/c1ccc(OC(=O)c2ccco2)cc1)c1ccc[n+]([O-])c1 | -11% | -2%

Single entries from the entries so far:
Reading of CC(C)N1CC2(CC(c3ccc(Cl)cc3Cl)=NO2)CN1C(=O)c1ccc(C(C)(C)C)cc1 (stereo not drawn) under RE007 growth inh: 9%
Reading of CCOc1ccc(OCCC(=O)N(CCOC)c2c(N)n(Cc3ccccc3)c(=O)[nH]c2=O)cc1 under StopGo reporter: -13%
Reading of CCc1nn(CC(=O)NCCCN2CCOCC2)c(=O)c2cc3c(OC)cccc3n12 under RE007 growth inh: -10%
Reading of N#Cc1ccc(S(=O)(=O)N2CCN(CN3C(=O)CC4(CCCC4)C3=O)CC2)cc1 under RE007 growth inh: -3%
Reading of Cc1ccc(NC(=S)NC(=O)c2cncc(Br)c2)c(C)c1 under RE007 growth inh: -2%

(continued)
SMILES | StopGo reporter | RE007 growth inh
CC1(C)OCC(N)(CO)CO1 | -17% | 6%
O=C(CCc1ccc(O)cc1)NN=Cc1cc(Br)ccc1O | 41%[activator] | -17%
C[C@H]1CN([C@@H](C)CO)C(=O)c2cc(Br)cnc2O[C@H]1CN(C)C(=O)C1CC1 | -5% | 11%
C=CCOC(=O)N1CCC2CC1c1c(-c3ccc(C(F)(F)F)cc3)cccc12 (stereo not drawn) | -22% | -1%
CN(Cc1ccc(C(F)(F)F)cc1)C(=O)[C@H]1O[C@@H](n2cnc3c(N)ncnc32)[C@H](O)[C@@H]1O | 39%[activator] | 11%
COCCCNC(=O)/C=C/[C@H]1O[C@@H](n2cnc3c(NC(=O)c4ccccc4)ncnc32)[C@H](O)[C@@H]1O | -7% | -1%
CC(C)=CCC[C@H](C)C[C@@H]1CC2=C(C(=O)OC(C)(C)O2)[C@H](c2ccc(Cl)cc2)O1 | -24% | 12%
CCOC(=O)[C@]12CCCC=C1N(Cc1cccc3ccccc13)C(=O)[C@H](CC(=O)NCCc1ccccc1OC)C2 | -17% | -9%
CCOC1=C2[C@@H](CN(S(=O)(=O)c3ccc(C)cc3)[C@H]2c2ccccc2F)[C@H]2C(=O)N(C3CCCCC3)C(=O)[C@H]2C1 | 10% | 9%
NC(c1csc(Nc2ccc(C(=O)NCCCO)cn2)n1)C1CCCCC1 (stereo not drawn) | -4% | 1%[18.4 µM]
COc1ccccc1-c1csc(C(O)(c2ccccc2)C(F)(F)F)n1 (stereo not drawn) | -11% | ?
COc1cc(/C=C/C(=O)OCC(=O)Nc2ccc3[nH]c(=O)[nH]c3c2)ccc1OC(F)F | -12% | 10%
COC(=O)[C@]12CCCCC=C1N(Cc1ccccc1)C(=O)[C@H](CC(=O)NCc1ccccc1)C2 | -5% | 28%
OCCCn1c(C2CCCN2c2nc(-c3ccc(F)cc3)cs2)nc2cc(Cl)c(N3CCCCC3)cc21 (stereo not drawn) | -7% | 5%
OC[C@@H]1CN(Cc2ccccc2)C[C@H](n2cnc3c(NC4CC4)ncnc32)O1 | -12% | 4%
CC(C)C[C@@H](CNCC(=O)[C@H](Cc1c[nH]c2ccccc12)NC(=O)c1[nH]cnc1C(=O)N[C@@H](C)CN)NC(=O)c1nc[nH]c1C(=O)N[C@@H](Cc1ccccc1)C(=O)O | -22% | 3%
CCOc1ccc(CCN2C(=S)N([C@@H](CC(C)C)CN3CCCC3CN3C(=S)NC[C@@H]3CC(C)C)C[C@@H]2Cc2ccc(O)cc2)cc1 (stereo partly drawn) | -23% | -13%
COc1ccc(NC(C)=O)cc1NC(=O)c1c(C)noc1C | 0% | 0%
CCOC(=O)C1=CCN(S(=O)(=O)c2ccccc2C)C1c1ccc(F)cc1 (stereo not drawn) | -21% | 8%
COc1ccc(-c2cnc(C(O)c3ccc(CN4CCCCC4)cc3)[nH]2)cc1 (stereo not drawn) | -13% | ?
COCC(=O)Nc1ccc2c(c1)[C@@H]1C[C@H](CC(=O)NCc3ccccc3)O[C@@H](CO)[C@@H]1O2 | -16% | 24%
O=C(NC1CCCC1)C1C(c2ccc(C(F)(F)F)cc2)=Nc2ccccc2N1C(=O)c1cccc2ccccc12 (stereo not drawn) | -4% | 5%
CCOC(=O)[C@]12CCCC=C1N(Cc1cccc3ccccc13)C(=O)[C@H](CC(=O)NCC1CCCCC1)C2 | -2% | -6%
O=C(c1cc(-c2ccccc2)nn1CC1CC(c2cccnc2)=NO1)N1CCOCC1 (stereo not drawn) | -12% | -8%
CN1CCN(C(=O)c2cc3c(c(-c4cccc(Br)c4)n2)[C@@H](CCO)N(S(=O)C(C)(C)C)C3)CC1 (stereo partly drawn) | 8% | 10%
C[C@H](CO)N1C[C@H](C)[C@@H](CN(C)C(=O)c2cnccn2)Oc2cc(C#CCC3CCCC3)ccc2S1(=O)=O | 24% | -24%
Cc1ccc(C(=O)Nc2ccncc2)cc1S(=O)(=O)N1CCCCC1 | ? | 7%
COC(C[C@H]1O[C@@H]1C(=O)[C@H](C)OCc1ccccc1)OC | -14% | 25%
Cc1cc2c(c(=O)o1)C1(C)CC(C)(O2)c2c(cc(C)oc2=O)O1 | 0% | -3%
COc1ccc(-c2ccc(C(=O)NCc3cccs3)c3occc23)c(C)c1 | 46%[activator] | 5%[18.4 µM]

New compounds follow:
SMILES | StopGo reporter | RE007 growth inh
COCCNC(=O)C1(C)CCN(Cc2cccc(Oc3ccccc3)c2)C1 (stereo not drawn) | -18% | -2%
CCOC(=O)[C@]12CCCC=C1N(CCC1=CCCCC1)C(=O)[C@H](CC(=O)N1CCN(C(=O)c3ccco3)CC1)C2 | -19% | -11%
C1CCC(NC2=NCCO2)CC1 | 0% | 4%
N#Cc1cccc(C(=O)C(=O)N2CCN(c3ccccc3)CC2)c1 | -17% | 0%
CC1(C(=O)NCc2ccccc2)CN(S(C)(=O)=O)CC(=O)N1CC(F)(F)F (stereo not drawn) | -16% | 7%
Cc1cc(NC(=O)COC(=O)CCn2c(C)csc2=O)c([N+](=O)[O-])cc1C | -2% | 10%
CCc1nc2ccc(C(=O)NCc3ccc4c(c3)OCO4)cn2c1N(CC)Cc1cccc(Br)c1 | -8% | -6%
CCOC(=O)C1=CC[C@@H](c2ccccc2)N(S(=O)(=O)c2ccc(C)cc2)[C@@H]1C#N | 10% | -6%
CC(C)NC(=O)C1(C)CCN1C/C=C/c1ccccc1 (stereo not drawn) | -20% | -17%
O=C(c1ccc(F)cc1)C1CCN(C(=O)c2ccc(Cl)cc2)CC1 | 0% | -25%
CSc1ncnc2c1ncn2CCCNCc1ccc(C)o1 | -6% | -6%
COc1ccc2oc3c(ccc[n+]3C)c(=O)c2c1 | 2% | -1%
CCOC(=O)[C@]12Cc3ccccc3[C@H]1N(C(C)C)C(=O)c1cc(OC)ccc12 | 28µM* | -6%
CC(=O)c1ccc(OCC(=O)Nc2ccc3c(c2)OCO3)cc1 | 17% | 5%
CCCc1c(C(=O)N/N=C(\C)c2ccc(CC(C)C)cc2)nnn1-c1nonc1N | -9% | -3%
CCCCNC(=O)C[C@@H]1C[C@@]2(C(=O)OCC)CCCC=C2N(CCc2ccc(OC)c(OC)c2)C1=O | 7% | -10%
CN1CCN(c2cc(CNC[C@H]3O[C@@H](n4cnc5c(=O)[nH]c(N)nc54)[C@H](O)[C@@H]3O)ccc2F)CC1 | -24% | -9%
Cc1cc(C)n2c(Nc3ccc4c(c3)OCCO4)c(CCc3ccccc3)nc2n1 | 5% | -28%
CCCCn1c2c(cc(C(=O)OC)c1=O)C(=O)CCC2 | -17% | -2%
Clc1ccc(-c2nc3c4ccccc4ccn3c2CC2CCCCC2)cc1 | 1% | -5%
c1ccc(CSc2nnc(NC3CCCCC3)s2)cc1 | 73%[activator] | -9%
CCOC(=O)[C@]12CCC=C1N(Cc1ccc3c(c1)OCO3)C(=O)[C@H](CC(=O)NCCc1ccccc1OC)C2 | -8% | 4%
Cc1ccc(NC(=O)Nc2nnc([C@@H]3C[C@H](O)[C@@H](CO)O3)s2)cc1 | 7% | 1%[18.4 µM]
O=C(NCCc1nc(-c2ccccc2)no1)c1ccco1 | 16% | -6%
CCC/C(=N/NC(=O)c1nnn(-c2nonc2N)c1CN1CCCCC1)c1ccccc1 | -17% | -5%
CC(C)(C)Cc1c(-c2ccc(F)cc2)nc2ccc(Cl)cn12 | ? | 11%
CCN1C(=O)[C@@H]2[C@@H]3CN(S(=O)(=O)c4ccccc4C)[C@@H](c4ccc(Cl)cc4)[C@@H]3C(=O)C[C@@H]2C1=O | -23% | -6%
Cc1cccc(C)c1N1C(=O)c2ccccc2NC(=O)C1C(=O)NCCc1ccccc1 (stereo not drawn) | -20% | -12%
CSC1=Nc2sc3c(c2C2=NCCN12)CC(C)(C)OC3 | -4% | 6%
CC[C@@H]1CC2=C(C(=O)OC(C)(C)O2)[C@@H](CC)O1 | -13% | 1%

Following part.
SMILES | StopGo reporter | RE007 growth inh
Cc1nc2sccn2c(=O)c1S(=O)(=O)NCC1CCN(Cc2ccc(Cl)cc2)CC1 | 0% | 11%
CCOC(=O)[C@]12CCCC=C1N(CCC1=CCCCC1)C(=O)[C@H](CC(=O)NCc1cccc(C(F)(F)F)c1)C2 | -9% | -9%
CCCNC(=O)C1(C)CCN(Cc2cccc(OC(=O)c3ccccc3)c2)C1 (stereo not drawn) | 12% | -27%[18.4 µM]
O=C(CN1CCOCC1)NN=Cc1ccc([N+](=O)[O-])o1 | -20% | -15%
CC(CC(c1ccccc1)N1CCc2ccccc2C1)=NO (stereo not drawn) | -29% | -5%

Screens: PubChem, National Center for Advancing Translational Sciences (NCATS)
